Compound activity: PubChem, National Center for Advancing Translational Sciences (NCATS)
Cruzain noTriton: qHTS Assay for Promiscuous and Specific Inhibitors of Cruzain (without detergent); Cruzipain (Trypanosoma cruzi), P25779; purified cruzain, Z-FR-AMC fluorescence, no detergent; Potency, µM, for the others: max response, negative = inhibition, hits mostly inhibitors; AID 1476, 2009; 200,000 compounds, 2.3% hits; active = well fitted curve in the direction sought with a large enough effect; inconclusive = small, poorly fitted or top-dose-only effect, or another doubt; inactive = no such curve, though single readings can be large; an effect the other way counts as inactive or inconclusive;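 note: plate controls were enzyme without inhibitor for no effect and buffer without enzyme for full effect; nearly all actives have a fitted effect of over 40% in size; top concentration of the series not given in the record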
Target sequence (P25779 123-467 limits assumed): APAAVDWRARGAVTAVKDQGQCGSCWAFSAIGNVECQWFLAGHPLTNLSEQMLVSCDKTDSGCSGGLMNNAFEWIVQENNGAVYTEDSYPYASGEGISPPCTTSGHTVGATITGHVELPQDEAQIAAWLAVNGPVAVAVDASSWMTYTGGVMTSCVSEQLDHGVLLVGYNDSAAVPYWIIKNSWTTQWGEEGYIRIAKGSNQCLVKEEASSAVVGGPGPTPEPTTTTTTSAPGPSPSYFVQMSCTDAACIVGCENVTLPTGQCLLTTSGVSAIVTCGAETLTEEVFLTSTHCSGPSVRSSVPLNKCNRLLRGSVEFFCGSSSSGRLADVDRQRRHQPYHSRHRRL
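Detergent-free condition (0.00005% Triton X-100) in acetate buffer pH 5.5 with DTT. 1.5 nM enzyme and compound were pre-mixed 15 min, then 2 uM Z-FR-AMC substrate added; reaction progress from fluorescence change between first and third reads (60 s).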
Marburg entry inh: qHTS for inhibitors of binding or entry into cells for Marburg Virus. Marburg virus pseudotyped entry inhibition, cell reporter; control for the full effect not named in the record; about a third of the inactives were read at about 46 µM. Potency, µM (series often up to 37.8 µM), for inactives: at the highest dose activity change, negative = inhibition, actives largely listed as inhibitors. 300,000 compounds, 1.8% hits. AID 540276, 2011; active = well fitted inhibition curve with a large enough effect; inconclusive = small, poorly fitted or top-dose-only effect, or effect the other way; inactive = flat fitted curve, though single readings scatter; tested in HEK293 cells; about a fifth of its hits are not listed in these tables; note: % is set by controls: 0 for no effect and ±100 for the full control effect; luciferase read-out
Cruzain inh Det: qHTS Assay for Promiscuous and Specific Inhibitors of Cruzain (with detergent); 200,000 compounds, 0.43% hits; Potency, µM, inactives show max response, negative = inhibition, actives largely listed as inhibitors; purified cruzain, Z-FR-AMC fluorescence, 0.01% Triton; Cruzipain (Trypanosoma cruzi), P25779; active = well fitted curve in the direction sought with a large enough effect; inconclusive = small, poorly fitted or top-dose-only effect, or another doubt; inactive = no such curve, though single readings can be large; an effect the other way counts as inactive or inconclusive;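 note: plate controls were neutral wells for no effect and buffer without enzyme for full effect; nearly all actives have a fitted effect of over 40% in size; top concentration of the series not given in the record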
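Purified cruzain (1.5 nM final) was preincubated with compounds for 15 min at room temperature in 100 mM sodium acetate pH 5.5, 5 mM DTT, 0.01% Triton X-100. Reaction started with 2 uM Z-FR-AMC; AMC fluorescence change over 60 s gave activity.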
2A StopGo: High Throughput Screening for Foot and Mouth Disease Virus Antivirals; human cells with a luciferase reporter of 2A StopGo recoding; control for the full effect not named in the record; Potency, µM (top dose mostly 57.9 µM), inactives show top-dose signal change, negative = less light; 410,000 compounds, 1.2% hits; AID 1159524, 2015; active = well fitted falling curve with a large enough effect; inconclusive = small, poorly fitted or top-dose-only effect; inactive = no such curve, though single readings can be large or run the other way; tested in HEK293T cells; note: % is set by controls: 0 for no effect and ±100 for the full control effect; nearly all actives have a fitted effect of over 45% in size; luciferase light after 4 h
SARS PLP yeast: qHTS of Yeast-based Assay for SARS-CoV PLP; 330,000 compounds, 0.19% hits; Potency, µM (top dose mostly 32.9 µM), inactives show top-dose activity, positive = growth rescue; S. cerevisiae expressing SARS-CoV PLpro, growth rescue; control for the full effect not named in the record; note: 0% is about no effect; nearly all actives have a fitted effect of over 55% in size; growth read by luminescence after 48 h
NS1 inh: qHTS Assay for Inhibitors of Influenza NS1 Protein Function; AID 2326, 2010; S. cerevisiae slowed by influenza A NS1, growth recovery by OD600; Potency, µM (top dose mostly 46.1 µM), for inactives: top-dose activity, positive = more growth; 270,000 compounds, 0.4% hits; note: actives are rising curves; nearly all actives have a fitted effect of over 50% in size
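Recovery from NS1-induced slow growth read by OD600 in budding yeast switched to galactose assay medium (pH 6.0, -URA) at 1:100 dilution. Compound 23 nl per well; the matching strain lacking NS1 serves as control.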
Lassa entry inh: qHTS for Inhibitors of binding or entry into cells for Lassa Virus; 300,000 compounds, 1.2% hits; Potency, µM (titrated, usually from 37.9 µM), without a hit: at the highest dose activity change, negative = inhibition, actives largely listed as inhibitors; AID 540256, 2011; Lassa virus pseudotype entry inhibition, cell reporter; control for the full effect not named in the record; active means well fitted inhibition curve with a large enough effect; inconclusive means small, poorly fitted or top-dose-only effect, or effect the other way; inactive means flat fitted curve, though single readings scatter; tested in HEK293 cells; note: % is set by controls: 0 for no effect and ±100 for the full control effect; nearly all actives have a fitted effect of over 50% in size; luciferase read-out
RE007 growth inh: qHTS Assay for Inhibitors of the HIV-1 protein Vpr; Potency, µM (doses to about 92.2 µM), for inactives: at the top dose activity change, negative = less growth; 360,000 compounds, 0.21% hits; S. pombe RE007 Vpr strain, BacTiter-Glo ATP luminescence, 24 h; control for the full effect not named in the record; AID 651644, 2012; active = well fitted falling curve with a large enough effect; inconclusive = small, poorly fitted or top-dose-only effect; inactive = no such curve, though single readings can be large or run the other way;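 note: % is set by controls: 0 for no effect and ±100 for the full control effect; nearly all actives have a fitted effect of over 50% in size; the assay follows cell death caused by Vpr and the record does not say whether a fall means rescue or toxicity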
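Fission yeast strain RE007, carrying one chromosomally integrated HIV-1 vpr copy, was seeded at OD 0.01 in PMG+AL medium with 23 nL pinned compound. After 24 h at 30 °C and 99% humidity, viability was read by BacTiter-Glo luminescence.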
An asterisk follows results filed as active; ? = inconclusive; . = no result given; & = joins results of further samples; [ ] = another dose, or the depositor's remark. Unless noted, calls come from the whole dose curve; as a rule, active means well fitted rising curve with a large enough effect; inconclusive means small, poorly fitted or top-dose-only effect; inactive means no such curve, though single readings can be large or run the other way. Potency is the fitted concentration of half-maximal effect. No enrichment for hits. Share with any hit: about 4.7%.

molecule	Cruzain noTriton	Marburg entry inh	Cruzain inh Det	2A StopGo	SARS PLP yeast	NS1 inh	Lassa entry inh	RE007 growth inh
COc1cc2c(cc1OC)C(c1cccc(C)c1)CC(=O)N2 (stereo not given)	.	.	.	-1%	1%	3%	.	13%
O=C(NCCCN1CCOCC1)c1ccccc1NS(=O)(=O)c1ccc(F)cc1	.	13%[46.1 µM]	.	9%	-1%	5%	9%	-14%
Cc1cccc(C)c1OCC(O)CNC(C)c1ccccc1 (stereo not given)	.	?	.	-23%	0%	-1%	?	3%
Cc1ccccc1OCCCC(=O)Nc1ccc2c(c1)OCO2	-27%	13%	-3.5%	24%	-12%	-9%	-8%	13%
Cc1ccc(S(=O)(=O)N2CCN(CCc3ccncc3)CC2)cc1	.	?	.	-13%	-6%	.	-11%[46.1 µM]	31%
CCOC(=O)[C@@H]1[C@H]2COc3cc(OC)ccc3[C@@H]2N2C(=O)N(c3cccc(F)c3)C(=O)[C@]12C	.	.	.	-19%	0%	7%	.	2%
Cc1ccc(S(=O)(=O)CC(=O)N2CCOCC2)cc1	.	28%[46.1 µM]	.	2%	0%	5%	11%	-7%
CC(=O)n1cc(C(C[N+](=O)[O-])SCCN)c2ccccc21 (stereo not given)	-1%	21µM*	-5.7%	?	-34%	-147%	?	?
O=C1NC(=O)[C@]2(Cc3ccccc3N3CCN(c4ccccc4)CC32)C(=O)N1c1ccccc1 (stereo not given in full)	?	1%	-7.5%	22%	2%	0%	2%	3%
O=C(CCc1ccccc1)N1CCc2c([nH]c3ccccc23)C1c1ccc(Cl)cc1 (stereo not given)	?	.	2.3%	-22%	.	.	?	.
Cc1ccc(C(=O)Nc2nnc(-c3ccncc3)s2)o1	-17%	4%	-2.7%	23%	0%	-35%	23%	-1%
CCCC1(C(=O)OCC)NC(c2ccco2)C2C(=O)N(C)C(=O)C21 (stereo not given)	.	-14%	.	-17%	0%	.	0%	0%
Cc1cc(C(=O)N/N=C/c2cccn2C)n[nH]1	0%	?	-7.6%	6%	-12%	-1%	7%	-4%
CCN1CCN(CCNC(=O)C2CCN(Cc3nc(-c4ccc(Cl)cc4)oc3C)CC2)CC1	-11%	3%	-5.4%	.	-1%	5%	.	.
COC(=O)c1ccc(CNC(=O)CN(CCC(C)C)S(=O)(=O)c2ccc3c(c2)OCCO3)cc1	25%	?	-2.5%	7%	-6%	-1%	-3%	-16%
O=C(COC(=O)CCC(=O)c1ccc(F)cc1)Nc1cccc(S(=O)(=O)N2CCCC2)c1	.	.	.	-14%	-5%	-4%	.	1%
Cc1cccc(-n2cc[nH]c2=S)c1C	9%	?	0.3%	-13%	4%	3%	12%	0%
COc1cc[n+]([O-])cc1[N+](=O)[O-]	.	7%[46.1 µM]	.	-1%	.	.	-4%[46.1 µM]	13%
N/C(=N\OC(=O)CCC1CCCC1)c1ccccn1	11%	?	-4.0%	48%[activator]	-105%	-36%	3%	6%
CCOC(=O)c1c(-c2ccccc2)oc2cc(Br)c(OCc3ccccc3)cc12	3%	.	0.0%	-15%	.	.	-18%[46.1 µM]	.
Cc1oc(-c2ccccc2)cc1C(N)=O	-7%	13%	0.0%	28%	-5%	-8%	-1%	-9%
Cn1c(CCNS(=O)(=O)c2ccccc2)nnc1SCc1cccnc1	.	21%[46.1 µM]	.	3%	-2%	-2%	18%[46.1 µM]	6%
Cc1ccc(C(=O)n2nc(-c3ccco3)nc2N)cc1	-4%	9%	0.9%	?	0%	3%	-34%	2%
O=C(c1cc2ccccc2oc1=O)N(c1ccc(Cl)cc1)C1C=CS(=O)(=O)C1 (stereo not given)	4%	-13%	-2.0%	?	-4%	-6%	-2%	13%
COc1ccc(CCNC(=O)C(=O)c2cn(CC(=O)N3CCOCC3)c3ccccc23)cc1OC	.	5%[46.1 µM]	.	14%	-19%	7%	1%[46.1 µM]	-6%

The listing continues:
molecule	Cruzain noTriton	Marburg entry inh	Cruzain inh Det	2A StopGo	SARS PLP yeast	NS1 inh	Lassa entry inh	RE007 growth inh
Cc1n[nH]c(C)c1S(=O)(=O)NCCc1ccc(Cl)cc1	-3%	8%	5.5%	15%	7%	1%	5%	13%
CCOC(=O)CSc1nc(N)c(C(=O)Nc2ccc(N(C)C)cc2)s1	-5%	-2%&-2%	-6.4%	13%	-6%	-14%	?	-22%
O=C(Nc1nccs1)c1ccc(-c2ccc(F)cc2)o1	.	-8%[46.1 µM]	.	6%	-1%	0%	-30%	1%
CC(C)C(=O)Nc1ccc2nn(-c3ccccc3)nc2c1	.	?	.	21%	-2%	-10%	?	-2%
Cc1ccc(C)c(Cn2c(=O)c3c(nc4n3CCN4c3ccc(F)cc3)n(C)c2=O)c1	12%	.	-7.4%	-1%	.	.	23%[46.1 µM]	.
CCc1ccc(NC(=O)Cc2ccc(-n3cccc3)cc2)cc1	?	-1%	-0.6%	-3%	6%	16%	-1%	-2%
Cc1ccc(S(=O)(=O)N(C)c2c(C)ccc(S(=O)(=O)N3CCN(C=O)CC3)c2C)cc1	?	-21%	-2.6%	-4%	-6%	-9%	3%	-12%
Cc1ccc(N/C(N)=N/c2nc(CSc3ccccn3)cc(=O)[nH]2)c(C)c1	.	-25%[46.1 µM]	.	?	2%	2%	?	-2%
COc1cccc(CCc2nnc(CCC(=O)NCCC3CCCCO3)o2)c1 (stereo not given)	.	.	.	1%	2%	11%	.	10%
O=S(=O)(c1ccc(Cl)cc1)n1ccc(-c2cccc(OCc3c(F)cccc3Cl)c2)n1	20µM*	?	3.6%	4%	9%	23%	-16%	6%
CC(=O)NC1CCCC(NC(C)=O)C1 (stereo not given)	.	0%[46.1 µM]	.	8%	.	.	9%[46.1 µM]	7%
Cc1cc(C)c(NC(=O)c2ccccc2CCc2ccccc2)c(C)c1	-13%	?	3.3%	0%	3%	4%	?	-6%
CC(C)CC(NC(=O)c1ccccc1)C(=O)OCC(=O)Nc1ccc(Br)cn1 (stereo not given)	?	0%	?	-14%	-10%	-4%	5%	-2%
Cc1ccc(C)c(OCC(=O)Nc2ccc(S(=O)(=O)Nc3onc(C)c3C)cc2)c1C	?	0%[46.1 µM]	-8.7%	-25%	.	.	?	.
CC(=O)N1c2ccc(S(=O)(=O)N3CCCCCC3)cc2CC1C(=O)NCc1cccc(C)c1 (stereo not given)	-4%	.	1.2%	-15%	.	.	14%[46.1 µM]	.
Cc1cc(CSc2ccccc2)ccc1NC(=O)c1ccc(C)c([N+](=O)[O-])c1	-6%	-14%	1.5%	-10%	8%	16%	3%	-1%
COC(=O)c1cccc(NC(=O)c2cccc([N+](=O)[O-])c2)c1	.	0%	.	17%	-2%	-10%	2%	-18%
O=C(NCC(c1ccco1)N1CCc2ccccc21)c1c(F)cccc1F (stereo not given)	.	-20%[46.1 µM]	.	-21%	-4%	.	-20%	-6%
COc1cc(NC(=O)CSc2ncnc3scc(-c4ccccc4)c23)c(C(=O)O)cc1OC	.	.	.	-3%	0%	3%	.	-3%
CC(C)(C)NS(=O)(=O)c1ccc(CCC(=O)Nc2ccc3c(c2)OCCO3)cc1	-7%	?	1.9%	-4%	-11%	3%	-14%	.
Oc1cccnc1CN1CCOCC1	.	.	.	3%	.	.	3%	-25%
CCCCNc1ncnc2c1cnn2-c1ccc(Cl)cc1	-15%	.	-3.5%	-9%	-5%	-10%	.	-17%
O=C(Nc1ccc2nc(-c3cccs3)c(-c3cccs3)nc2c1)N1CCOCC1	?	?	-0.2%	-16%	-5%	9%	?	-6%
CCC(=O)Nc1ccc(N2CCN(Cc3ccccc3)CC2)cc1	-4%	?	0.0%	5%	0%	0%	29%	-3%
NC1(C(=O)O)CCCCC1	-2%	?	-4.6%	.	.	7%	5%	.

(further entries)
molecule	Cruzain noTriton	Marburg entry inh	Cruzain inh Det	2A StopGo	SARS PLP yeast	NS1 inh	Lassa entry inh	RE007 growth inh
O=C(N/N=C/c1ccc([N+](=O)[O-])o1)c1cn(-c2ccccc2)nc1-c1ccc(F)cc1	.	0%[46.1 µM]	.	6%	0%	6%	-8%[46.1 µM]	-7%
COC(=O)C(C)Sc1nc2c(c(=O)n1-c1ccccc1)SCC2 (stereo not given)	-2%	5%	0.2%	-1%	-7%	-6%	-4%	-3%
CCOc1ccc(NC(=O)CN(C)C(=O)CSC(C)C(=O)Nc2cc(C)on2)cc1OCC (stereo not given)	.	.	.	-6%	5%	14%	.	3%
COc1ccc(C(=O)Nc2nc(-c3ccc([N+](=O)[O-])cc3)c(-c3ccccc3)s2)cc1	.	-5%	.	?	.	.	-26%	13%
COc1cccc(CN(C)CC(=O)Nc2c(C)cccc2C(C)C)c1	.	?	.	?	0%	3%	.	-6%
COc1ccc(-c2nn(-c3ccccc3)cc2C(=O)Nc2nc(CC(C)=O)ns2)cc1	16%	0%	-2.7%	-14%	2%	-15%	-19%	1%
COc1cccc(/C=N/NC(=O)CNC(=O)c2cccs2)c1O	.	?	.	12%	1%	-11%	?	-22%
NNC(=O)c1cc(C23CC4CC(CC(C4)C2)C3)[nH]n1	.	17%[46.1 µM]	.	1%	2%	23%	0%[46.1 µM]	9%
